Screening data from PubChem.
GALR2 ag: GALR2 receptor agonists, primary screen, cell-based; Galanin receptor type 2 (Homo sapiens), O43603; GALR2-expressing cells, agonist activation read-out; activation, %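 (tested at 5 µM)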; 140,000 compounds, 0.48% hits; AID 803, 2007;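 active = above mean plus 3 SD of all compounds, about 5% in these data, not always enough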;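 note: 0% = vehicle buffer wells and 100% = reference agonist at full effect; tested in CHO reporter cells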
RGS16-Gao: modulators of RGS16 binding to Galphao, primary screen, biochemical, human proteins, multiplexed bead flow cytometry; bead-based flow cytometry RGS16-Galphao binding, fluorescence; actives lie on both sides; binding response (% of control), % at 10 µM; 220,000 compounds, 0.38% hits; AID 1441, 2008;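 active = below 25% or above 175%, edge rows of some plates excepted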;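 note: Galphao activated by GDP with aluminum fluoride before binding; 100% = wells without compound and 0% = beads without RGS; some results beyond the cut were filed as inactive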
HSV replic up: enhancers of HSV replication in host cells, fold increase, host cell viability. AID 1956, 2009. maximum fold increase. 220,000 compounds, 0.005% hits. HSV replication augmentation in cells;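 active = peak rise of 1.5-fold or more in the series; tested in PC3 cells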;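 note: first round at 10 µM; read as green reporter fluorescence; hits show the peak of a series up to 25 µM; 1 = signal of infected wells without compound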
INS promoter inh: inhibitors of insulin promoter-driven GFP, primary screen, imaging, TRM-6 cells (human fetal islet line), eGFP reporter, cell count; reporter expression induced with tamoxifen; inhibition, % at 2 µM; 130,000 compounds, 0.9% hits; AID 1273, 2008;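 active = inhibition above the mean plus 3 SD, with well images judged a real hit on visual review, cut at about 60% in these data, passing the limit was not always enough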
PKD1 kinase inh: inhibitors of human PKD1 kinase, biochemical, fluorescence polarization. Serine/threonine-protein kinase D1 (Homo sapiens), Q15139. PKD1 kinase fluorescence polarization assay. inhibition, %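 (about 10 µM by stock and volumes)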. 200,000 compounds, 0.056% hits. AID 797, 2007;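 active = inhibition of 50% or more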;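 note: controls were vehicle for no effect and a reference inhibitor for full effect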
Target sequence (Q15139 whole entry, looked up): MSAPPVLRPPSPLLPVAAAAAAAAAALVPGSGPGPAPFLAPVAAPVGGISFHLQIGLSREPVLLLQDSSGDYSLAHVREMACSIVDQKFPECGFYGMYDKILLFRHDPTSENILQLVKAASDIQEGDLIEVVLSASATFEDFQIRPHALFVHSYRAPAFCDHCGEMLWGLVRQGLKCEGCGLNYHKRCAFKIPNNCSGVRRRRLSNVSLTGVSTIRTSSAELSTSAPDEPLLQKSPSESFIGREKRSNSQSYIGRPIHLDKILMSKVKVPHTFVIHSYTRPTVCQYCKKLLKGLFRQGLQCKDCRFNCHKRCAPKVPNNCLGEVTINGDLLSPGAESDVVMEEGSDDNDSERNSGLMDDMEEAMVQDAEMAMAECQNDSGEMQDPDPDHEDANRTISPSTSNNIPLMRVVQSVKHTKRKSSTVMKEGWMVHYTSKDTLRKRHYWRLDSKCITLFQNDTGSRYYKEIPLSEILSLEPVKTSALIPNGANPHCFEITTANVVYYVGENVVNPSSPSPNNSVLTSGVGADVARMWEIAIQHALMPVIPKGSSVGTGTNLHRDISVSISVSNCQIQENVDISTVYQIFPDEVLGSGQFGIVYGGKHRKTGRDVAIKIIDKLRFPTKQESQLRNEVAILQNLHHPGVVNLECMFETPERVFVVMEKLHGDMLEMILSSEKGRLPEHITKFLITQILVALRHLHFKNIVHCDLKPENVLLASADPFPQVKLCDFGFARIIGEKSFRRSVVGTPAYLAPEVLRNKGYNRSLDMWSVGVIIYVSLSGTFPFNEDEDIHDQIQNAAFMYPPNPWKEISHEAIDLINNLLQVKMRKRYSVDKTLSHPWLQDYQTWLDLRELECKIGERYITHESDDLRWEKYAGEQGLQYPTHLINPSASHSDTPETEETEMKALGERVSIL
INS promoter inh cell count: also measured in INS promoter inh; calls as there; normalized cell count, %; measured here: cell count, toxicity; reference of the scale not given here;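 cells exposed to compound for 48 h; stained nuclei by imaging scaled within each plate; lower means fewer cells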
HSV replic up primary fold: further read-out of HSV replic up, marked with its call; fold increase; compound at 10 µM; measured here: primary screen fold increase 10 uM; tested in PC3 cells;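 GFP signal in the first replicate; 1 = infected wells without compound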
The depositor's hits bear a star; i = inactive; · = no result given.

SMILES	GALR2 ag	RGS16-Gao	HSV replic up	HSV replic up primary fold	INS promoter inh	INS promoter inh cell count	PKD1 kinase inh
N#Cc1c(NC(=O)CSc2ncn(-c3ccccc3)n2)sc2c1CCCC2	-2.1	104	i	1	-32	123	1
CCOc1ccc(C(=O)NCC(=O)OCc2csc(-c3ccccc3)n2)cc1	-1.4	104	i	0.87	·	·	-21
CN1CCN(C(=O)/C(=C\c2cccc([N+](=O)[O-])c2)NC(=O)c2cccs2)CC1	·	108	i	0.89	·	·	-2
Cc1nnc(SCC(=O)NCc2ccc3c(c2)OCO3)[nH]c1=O	-1.8	99	i	0.94	44	123	-8
COc1ccc(N2CCN(S(=O)(=O)c3cc(C)ccc3OC)CC2)cc1	·	102	i	1	·	·	-6
Cc1cccc(OCCn2c(CCCO)nc3ccccc32)c1	0.0	104	i	0.87	·	·	9
Cc1cc(C)nc(N/N=C/C(Cl)=C/c2ccccc2)n1	-1.0	112	i	0.8	-11	133	-6
O=C(c1ccc(Cl)cc1)C1CCCN(C(=O)c2csnn2)C1 (centres undefined)	·	101	i	1.1	·	·	-2
COc1ccc(OCC(=O)NNC(=O)C2CCCO2)cc1 (centres undefined)	-0.1	94	i	0.97	-14	117	-13
CCOc1ccccc1NC(=O)COC(=O)CN(C)S(=O)(=O)c1ccc(C)cc1	-1.0	105	i	1	0	141	5
O=C(COc1ccc2ccccc2c1Br)Nn1cnnc1	-0.8	101	i	1	62	118	6
O=C(CCCl)Nc1cc(SCCO)cc([N+](=O)[O-])c1	1.5	101	i	0.85	-56	75	-3
CCN1CCN(CCc2nc3cc(NC(=O)COc4ccc(Cl)cc4)ccc3n2C)CC1	·	102	i	0.88	·	·	·
COc1ccc(C(=O)CCC(C)(C)[N+](=O)[O-])cc1OC	·	107	i	1.1	22	169	-1
Cc1cc(NC(=O)c2ccc(NC(=O)c3cccs3)cc2)no1	-1.2	74	i	1	·	·	2
CC(=O)OCC(OC(C)=O)C(OC(C)=O)C(OC(C)=O)C(=O)Nc1ccc(C)cc1 (centres undefined)	-3.6	98	i	0.93	·	·	-2
COc1ccc(NC(=S)NC(C)C(c2ccccc2)N2CCOCC2)cc1 (centres undefined)	·	107	i	0.8	-17	160	-2
COc1cc(C(=O)N/N=C/C2CC=CCC2)cc(OC)c1OC (centres undefined)	1.6	100	i	0.87	·	·	-4
O=C(NC(Cc1ccccc1)C(=O)O)/C(=C\c1ccc(F)cc1)NC(=O)c1ccccc1 (centres undefined)	0.1	108	i	1	0	70	-1
O=C(O/N=C1\CCS(=O)(=O)c2sccc21)C1CC1	·	104	i	1	·	·	-6
Cc1nc(-c2ccccc2)ccc1C(=O)O	·	111	i	0.98	29	124	8
COCCNC(=O)C(=O)Nc1ccc(Br)cc1	-0.4	115	i	0.87	-214	87	-5
CCCNc1ncnc2c1cnn2-c1ccc(OC)cc1	-1.7	102	·	·	·	·	10
COc1ccc(/C=C2\N=C(SC)N(C)C2=O)cc1	-1.3	104	i	0.97	-4	125	-2
CCCc1nc(N2CCN(C)CC2)c2sc(=S)n(-c3ccccc3)c2n1	0.4	103	i	0.75	-29	75	0
c1ccc(NCc2nc(-c3ccccc3)no2)cc1	-2.9	105	i	0.98	80*	88*	-7
O=C(NNC1CC(=O)N(c2ccccc2)C1=O)c1cccnc1 (centres undefined)	·	112	i	1	·	·	·
N=c1n(CCN2CCCCC2)c2ccccc2n1CC(O)COc1ccccc1 (centres undefined)	-0.7	98	i	0.71	·	·	-9
COc1ccc(C(=O)c2ccccc2Cl)cc1	0.2	102	i	0.86	21	98	-7
CC(C)c1ncc(S(=O)(=O)c2ccc(C(F)(F)F)cn2)c(N)n1	·	97	i	0.97	·	·	·
COc1ccccc1NC(=O)O/N=C(\N)c1ccccc1	·	100	i	0.88	·	·	·
COc1ccccc1NC(=O)c1ccccc1NC(=O)c1cc(Cl)ccc1NC(=O)c1ccco1	-1.3	104	i	0.72	-20	71	-1
O=C(Cc1ccc2c(c1)OCCO2)N1CCN(S(=O)(=O)c2cccc(Cl)c2Cl)CC1	-0.3	159	i	0.92	-60	52	-3
Cc1ccc(OCc2cc(C(=O)Nc3ccccc3)oc2C)cc1	0.3	103	i	0.97	-53	98	-7
CN1C(=O)N(C)C2(CC1(C)C)CC(C)(C)N(C)C(=O)N2C	-1.1	94	i	0.94	-175	32	-5
O=C(CCN1C(=O)c2ccccc2C1=O)Nc1ccc(-c2cn3ccsc3n2)cc1	-2.5	105	i	1	21	60	-5

Retrieved by compound from the list above (3):
SMILES	GALR2 ag	RGS16-Gao	HSV replic up	HSV replic up primary fold	INS promoter inh	INS promoter inh cell count	PKD1 kinase inh
O=C(CCN1C(=O)c2ccccc2C1=O)Nc1ccc(-c2cn3ccsc3n2)cc1	-2.5	105	i	1	21	60	-5
CN1C(=O)N(C)C2(CC1(C)C)CC(C)(C)N(C)C(=O)N2C	-1.1	94	i	0.94	-175	32	-5
O=C(NNC1CC(=O)N(c2ccccc2)C1=O)c1cccnc1 (centres undefined)	·	112	i	1	·	·	·

Entries of single compounds, looked up by structure. Screens in order: GALR2 ag, RGS16-Gao, HSV replic up, HSV replic up primary fold, INS promoter inh, INS promoter inh cell count, PKD1 kinase inh
`COCCNC(=O)C(=O)Nc1ccc(Br)cc1` is listed with -0.4, 115, i, 0.87, -214, 87, -5
`O=C(CCN1C(=O)c2ccccc2C1=O)Nc1ccc(-c2cn3ccsc3n2)cc1` is listed with -2.5, 105, i, 1, 21, 60, -5
`c1ccc(NCc2nc(-c3ccccc3)no2)cc1` is listed with -2.9, 105, i, 0.98, 80*, 88*, -7
`O=C(c1ccc(Cl)cc1)C1CCCN(C(=O)c2csnn2)C1` (centres undefined) is listed with ·, 101, i, 1.1, ·, ·, -2
`COc1ccccc1NC(=O)c1ccccc1NC(=O)c1cc(Cl)ccc1NC(=O)c1ccco1` is listed with -1.3, 104, i, 0.72, -20, 71, -1

Remaining list, next part
SMILES	GALR2 ag	RGS16-Gao	HSV replic up	HSV replic up primary fold	INS promoter inh	INS promoter inh cell count	PKD1 kinase inh
COc1ccc(CC(=O)NCc2nnc(SCC(=O)Nc3cccc(F)c3)n2C)cc1	·	100	i	0.92	·	·	0
CCCCN(C(=O)c1ccc(S(=O)(=O)N(C)C)cc1)c1ccccc1	·	97	i	0.93	·	·	·
Cc1ccc(CN2CCN(CC(=O)O)C2=O)cc1	·	102	i	1	·	·	1
Cc1ccc2[nH]c(-c3ccccc3)c(CN3CCCC3)c(=O)c2c1	·	98	i	0.98	·	·	0
O=C(COc1ccc(Cl)cc1)Nc1ccccc1CO	-0.9	116	i	0.89	13	105	-10
CSc1nc(C)c(C(=O)C[n+]2ccccc2)cc1C#N	·	90	i	0.91	·	·	·
CCN(C=NC1=NN(c2cccc(C(F)(F)F)c2)CC1)CC	-0.2	109	i	1	62*	92*	-6
Cc1ccc(-n2nc(-c3cccs3)cc2C(=O)NCC2CCCO2)c(C)c1 (centres undefined)	0.4	102	i	0.92	-9	107	1
CCCCN(C(=O)Nc1ccc(Cl)cc1)C1CCN(C(C)=O)CC1	-2.2	103	i	0.81	0	109	4
Cc1ccc(NC(=O)CN(C)C(=O)CCOc2ccccc2C)cc1	-1.6	102	i	1	·	·	3
O=C(N/N=C/c1ccc(OC(=O)c2ccccc2)c([N+](=O)[O-])c1)c1ccc(O)cc1	0.5	100	i	1	·	·	-2
Cc1c(-c2ccc(F)cc2)[n+](=O)c2c(n1[O-])CCCCC2	0.6	114	·	·	8	114	5
CC1CCC(C(C)C)C(OC(=O)CSc2nnc(N)s2)C1 (centres undefined)	-1.7	98	i	1	-6	201	-3
COc1ccc(S(=O)(=O)N2CCCCC2)cc1NC(=S)Nc1cccc(Cl)c1C	-1.4	110	i	1.2	10	94	18
ONC(=Nc1cccc(C(F)(F)F)c1)c1cccnc1	·	100	i	0.93	·	·	·
COc1ccc(/C=C\c2cc(OC)c(OC)cc2CC[N+](C)(C)C)cc1OC	·	101	i	1.1	·	·	-7
CCOC(=O)COc1ccc(S(=O)(=O)N2CCN(c3ccccc3)CC2)cc1	0.3	104	i	0.76	·	·	-3
Cc1nn(C(C)C(=O)c2cccc(Cl)c2)c(C)c1[N+](=O)[O-] (centres undefined)	·	98	i	0.67	-18	104	-4
CCNC(=O)CC1C(=O)N(c2ccc(F)cc2)C(=O)N1Cc1ccc(OC)cc1 (centres undefined)	-1.1	99	i	1	9	214	-12
O=C(NCN1C(=O)C2C3C=CC(C3)C2C1=O)Nc1nncs1 (centres undefined)	-0.5	106	i	0.96	46	68	0
CC(C)n1cnc2c(Nc3cccc(Cl)c3)nc(NCCCO)nc21	·	96	i	0.69	·	·	·
COc1ccc(CNc2n[nH]c(NCc3ccc(OC)c(OC)c3)n2)cc1OC	-1.4	103	i	1	11	188	-5
COc1cc2[nH]c(=O)n(CCC(=O)N3CC=C(c4ccccc4)CC3)c(=O)c2cc1OC	-2.8	91	i	0.9	-13	108	-2
N/C(CSc1nc(-c2ccccc2)c(-c2ccccc2)o1)=N\O	-3.8	102	i	0.91	-20	131	-7
CCCCCCCCOC(=O)C[N+](C)(C)C/C=C(/C)Cl	-1.0	103	i	1.1	-40	52	-4
CCC(=O)N(c1ccc(C(=O)O)cc1)c1nc(-c2ccc(OC)cc2)c(C)s1	·	104	i	0.86	8	64	-7
CC(C)(CO)Nc1nc(Cl)nc(NC2CCCCC2)n1	·	98	i	0.98	·	·	·
COc1ccc(C2=NN(C(=O)CSc3nc4ncc(Cl)cc4[nH]3)C(c3ccco3)C2)cc1 (centres undefined)	·	99	·	·	-36	136	1
COCCNC(=O)c1ccc2c(c1)ncn2-c1ccc(F)c(F)c1	-2.7	48	i	0.95	15	116	0
O=C(Cn1cc2c(n1)CCCC2)NCc1cccnc1	0.2	83	i	1.2	·	·	-1
COc1cccc(NC(=O)N2CCCc3ccccc32)c1	·	96	i	1	16	107	-4
CCOC(=O)N1CCN(c2nc(C)c3c(n2)CC(C)CC3=O)CC1 (centres undefined)	-1.0	149	i	0.85	·	·	-3
CN(CCO)c1cc(Sc2nc3ccccc3s2)c2nonc2c1[N+](=O)[O-]	-1.1	78	i	0.82	-11	50	0
Cc1ccccc1-n1nnnc1SC1CCOC1=O (centres undefined)	-1.0	103	·	·	·	·	-17
COc1cccc(OCCNC(=O)c2cccc(OC)c2)c1	-0.2	109	i	0.97	54	105	-4
COc1ccc2nc(SC(C(=O)c3ccccc3)c3ccccc3)nc(C)c2c1 (centres undefined)	0.9	103	i	0.92	-28	59	-7
COc1ccc(CCN2CC(C(=O)NCCc3ccccc3)CC2=O)cc1OC (centres undefined)	·	103	i	1	-137	86	1
Cc1nc2c(-c3ccccc3)c(C)nn2c(SCC(N)=O)c1Cc1ccccc1	·	116	i	0.8	·	·	·
COc1ccc([N+](=O)[O-])cc1NC(=O)c1ccccc1SC	·	100	i	0.99	·	·	-4
COc1cc(OC)cc(C(=O)N2CCN(S(C)(=O)=O)CC2)c1	-2.3	99	i	1	-45	78	-2
CC1CCN(CC(=O)Nc2ccc(Br)cc2[N+](=O)[O-])CC1	·	94	i	0.97	·	·	0
O=C(N/N=C/c1ccccn1)C(O)c1ccccc1 (centres undefined)	·	94	i	0.95	·	·	·
COc1ccc(CCNC(=O)CN2C(=O)c3ccccc3S2(=O)=O)cc1	0.7	98	i	1.1	10	138	-12
O=C(CN1C(=O)NC2(CCCC2)C1=O)N1CCN(S(=O)(=O)c2ccc(Cl)cc2)CC1	·	105	i	0.91	·	·	-3
CC(=O)C(=Cc1cn(-c2ccccc2)nc1-c1ccccc1)C(C)=O	·	97	i	0.99	·	·	2
CCNCc1ccc(OCc2cccs2)c(OCC)c1	·	102	i	0.88	13	107	1
CC1C2Cn3c(nc4ccccc43)C1N(C(C)C)O2 (centres undefined)	·	103	i	1	·	·	·
Cc1ccc2cc3c(nc2c1)N(Cc1ccco1)CC3	-2.1	100	i	1	3	377	-5
CCOc1ccc(NC(=O)C2CCCN(S(=O)(=O)c3c(C)nn(C)c3C)C2)cc1 (centres undefined)	-1.9	108	i	0.9	·	·	-1
COc1ccc(NC(=O)Cn2c3ccccc3c3nc4n(c(=O)c32)CCS4)cc1	·	100	i	0.78	-17	110	8
O=C(CN1CCN(Cc2ccccc2)CC1)N/N=C/C=C/c1ccco1	-0.9	99	·	·	·	·	-6
CCc1ccc(S(=O)(=O)NCCc2cn3ccccc3n2)s1	0.7	107	i	1	-9	113	-3
CC(C)(Oc1ccc(-c2ccco2)cc1)C(=O)O	-0.4	99	i	1.1	9	121	-2
COCCNC(=O)CN1c2ccccc2CC1C (centres undefined)	-1.6	100	i	1	·	·	-10
